# Biofilm kill mix – mixtures killing C. albicans biofilm. 120,000 compounds, 0.02% hits. inhibition, % at 7.6 µM. C. albicans biofilm persisters + clotrimazole, fluorescence viability; primary screen in compound mixtures of four per well;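 active means inhibition above 30.3% in the primary screen of four-compound pools, then above 30% when the compound was retested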;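 further: compounds exposed to preformed 24 h biofilms for 48 h; the number belongs to the whole pool; some results filed as inactive read as strong as hits; inactives centre near 12; 0% = biofilm with clotrimazole alone and 100% = kill control; retested singly at about 60 µM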
#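 Test system: C. albicans biofilms. Buffer or medium: RPMI/MOPS medium, pH 7.0. Timing: 48 h compound exposure at 37 °C. Technique: Alamar Blue fluorescence. Evaluation: percent inhibition of biofilm viability.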
# Starred values were filed as active, the others as inactive. Only part of the results is shown, so the mix of outcomes need not match the whole.
Compound,Biofilm kill mix
COC(=O)c1cc(C)nc(Sc2ccccc2N)n1,7
Nc1c(C(=O)c2ccccc2)sc2nsc(SCCN3CCCC3)c12,13
CCOc1ccccc1NC(=O)CNC(=O)Cc1ccccc1,16
O=C(Cn1ncc(Cl)c(Cl)c1=O)N1CCN(Cc2ccccc2)CC1,17
Cc1onc(-c2c(Cl)cccc2Cl)c1C(=O)c1ccccc1,21
Oc1ccccc1-n1c(-c2ccccc2)ccc1-c1ccccc1,25
O=C(CCc1ccc(O)c(O)c1)NNC(=S)Nc1ccc(Br)cc1Cl,23
CC(OC(=O)c1oc2ccccc2c1CSC1CCCCC1)C(=O)NC(N)=O (stereo not drawn),5
C#CCNC(=O)C1=C[C@H](c2cn(C(C)=O)c3ccccc23)C[C@H](OCc2ccc(CO)cc2)O1,-1
CCC(C)N=C1Sc2nc3ccc(C)cc3cc2CN1CCOC (stereo not drawn),2
Nc1ccc(/C=C/c2ccc3ncccc3c2)cc1,5
CCCc1nn(C)c(C(=O)Nc2cccc(Cl)c2)c1Cl,9
Nc1nc(N)nc(-c2ccccc2-c2nc(N)nc(N)n2)n1,5
CCOc1ncccc1C(=O)N1CCN(S(=O)(=O)c2ccccc2)CC1,11
Cc1cccc(NC(=O)C2(c3cccs3)CCOCC2)n1,20
O=[N+]([O-])c1ccc(O)c(/C=N/n2c(CO)nc3ccccc32)c1,9
COc1ccccc1C(=O)OCC(=O)c1cccc([N+](=O)[O-])c1,9
CCCCN1C(=O)C(O)=C(C(C)=O)C1c1ccccc1[N+](=O)[O-] (stereo not drawn),0
Clc1ccccc1C(c1ccccc1)(c1ccccc1)n1ccnc1,-8
COc1ccc(CCN=C(N)NS(=O)(=O)c2ccccc2)cc1,16
Cc1ccc(NC(=O)Cn2ccc([N+](=O)[O-])n2)cc1Cl,6
O=C(Nc1ccc(OC(F)(F)F)cc1)c1[nH]ncc1[N+](=O)[O-],5
CCOC(=O)NC(=O)C(=CNc1cccc(C)c1)C(=O)NC(=O)OCC,16
C=CCn1c(-c2cccnc2)n[nH]c1=S,18

# A draw from above in order of formula weight, descending.
Compound,Biofilm kill mix
Clc1ccccc1C(c1ccccc1)(c1ccccc1)n1ccnc1,-8
CCCCN1C(=O)C(O)=C(C(C)=O)C1c1ccccc1[N+](=O)[O-] (stereo not drawn),0
COc1ccccc1C(=O)OCC(=O)c1cccc([N+](=O)[O-])c1,9
O=[N+]([O-])c1ccc(O)c(/C=N/n2c(CO)nc3ccccc32)c1,9

# Back to the main list; the five compounds before the break are reprinted first.
Compound,Biofilm kill mix
COc1ccc(CCN=C(N)NS(=O)(=O)c2ccccc2)cc1,16
Cc1ccc(NC(=O)Cn2ccc([N+](=O)[O-])n2)cc1Cl,6
O=C(Nc1ccc(OC(F)(F)F)cc1)c1[nH]ncc1[N+](=O)[O-],5
CCOC(=O)NC(=O)C(=CNc1cccc(C)c1)C(=O)NC(=O)OCC,16
C=CCn1c(-c2cccnc2)n[nH]c1=S,18
CC(=O)Nc1cc(ON=C(C)C)cc([N+](=O)[O-])c1,15
Cc1ccc(S(=O)(=O)N2CCCC(C(=O)Nc3ccc(NC(=O)c4ccccn4)cc3)C2)cc1 (stereo not drawn),12
COc1ccc(/C=N\NC(=O)c2ccc(=O)[nH]n2)cc1O,-2
C=CCC(Nc1ccccc1)c1cccc(OC)c1OC (stereo not drawn),25
O=C(O)CCCCCCCCCCCc1ccccc1,-4
Cc1ccc(-c2cc3nc(-c4ccc(Br)cc4)cc(N)n3n2)cc1,13
COC(=O)CCCC[C@@H]1SC[C@@H](NC(=O)OC)[C@@H]1NC(=O)OC,18
Cc1ccc(S(=O)(=O)NC(=O)Nc2cccc(C)n2)cc1,0
CCC(=O)N1CCN(c2ccc(NC(=O)c3ccc(N4CCCC4)c([N+](=O)[O-])c3)cc2)CC1,14
COCCn1c(=NC(=O)C2COc3ccccc3O2)sc2cc(S(N)(=O)=O)ccc21 (stereo not drawn),24
Cc1nnc(Sc2cc(C(=O)NCCCOC(C)C)c3ccccc3n2)s1,20
O=C(NNC(=O)c1nn(-c2ccc(F)cc2)ccc1=O)Nc1cccc(Cl)c1,-2
Cc1[nH][nH]c(=O)c1C(c1ccc([N+](=O)[O-])cc1)c1c(C)[nH][nH]c1=O,1
CCN(CC)S(=O)(=O)c1cccc(-c2nnc(SCC(=O)N3CCC(C(=O)O)CC3)n2N)c1,8
O=C(Cn1c2c(c(-c3ccccc3)cc1=O)CCCC2)N1CCCCCC1,17
Cc1ccc(S(=O)(=O)CC(C)(O)CS(=O)(=O)c2ccc(C)cc2)cc1,21
COc1ccc(C2Nc3ccccc3C(=O)N2NS(=O)(=O)c2ccccc2)cc1OC (stereo not drawn),-1
OC(CC#CCN1CCCC1)(c1ccccc1)c1ccccc1,20
CN(C)CCOC(=O)C12CC3CC(C1)CC(C(=O)OCCN(C)C)(C3)C2,24
CNC(=O)CC1C(=O)N(c2ccc(OC)cc2)C(=S)N1NC(=O)c1cccc(F)c1 (stereo not drawn),12
COc1cc(C)ccc1OCCCOc1c(Cl)cccc1Cl,23
O=C1NC(=S)N/C1=C/c1cccnc1,26
C#CCOCCOCCOCCNc1nc(N2CCOCC2)nc(N2CCN(C(=O)[C@H](CCCCN)n3cc([C@@H](N)C(C)CC)nn3)CC2)n1 (stereo partly drawn),18
COC(=O)N/N=C/c1c(C)c(C(=O)c2ccc(F)cc2)n2ccccc12,8
CCOc1ccc(C2c3[nH]c4ccccc4c3CCN2Cc2cn(CC)nc2C)cc1 (stereo not drawn),2
Cc1c(C(=O)OCC(=O)Nc2cccc(S(N)(=O)=O)c2)oc2c1ccc1ccccc12,20
CC1CC(=O)Nc2ccc([N+](=O)[O-])cc2N1C (stereo not drawn),11
O=c1cc(N2CCN(c3ccccc3)CC2)[nH]c(=O)n1-c1ccccc1,13
CCC(C)[C@H](NC(=O)Nc1ccccc1F)C(=O)O (stereo partly drawn),18
O=C(O)c1ccc(NC2CC(=O)N(Cc3ccccc3)C2=O)cc1 (stereo not drawn),0
Cc1cc(NC(=O)CSCC(=O)N(c2cccc(Cl)c2)C(C(=O)NC2CCCCC2)c2ccc(O)c(O)c2)no1 (stereo not drawn),11
COCc1cc(CN2CCCC(CNC(=O)c3ccc(F)cc3)C2)ccc1OC (stereo not drawn),1
Cc1nn(C(C)C)c(C)c1CN1CCCC(C(=O)c2cccc(OC(C)C)c2)C1 (stereo not drawn),3
CCOC(=O)c1sc(NC(=O)CSc2n[nH]c(CC(C)C)n2)nc1C,6
COc1ccc(OC)c(NC(=S)NCc2ccccc2OC)c1,6
CC(C)[C@H](NC(=O)c1ccccc1Cl)C(=O)NC1CCCCCC1,-1
O=C(COC(=O)c1cccc(C(=O)OCC(=O)NCc2ccc(F)cc2)n1)NCc1ccc(F)cc1,14
COC(=O)C(C)NC(=O)COc1ccc2ccccc2c1 (stereo not drawn),8
COc1cc(CN2CCNC(=O)C2CC(=O)O)cc(OC)c1 (stereo not drawn),10
Cc1ccc(NC(=S)/C(=C(\[O-])c2ccc(Cl)s2)[n+]2cccc(CO)c2)cc1C,5
Cn1ccnc1SCC(=O)n1c2c(c3ccccc31)CCCC2,18
Cc1cc(C)c2nc3nc(C)cc(C)c3c(N)c2c1,15
O=C(NNC1CC(=O)N(c2cccc(Cl)c2)C1=O)c1cccnc1 (stereo not drawn),14
O=S(=O)([N-]c1nc2ccccc2nc1-[n+]1ccccc1)c1ccc(F)cc1,14
Clc1ccc(Cc2nc(-c3ccncc3)no2)cc1,-8
O=C(O)C1C2CCC(O2)C1C(=O)Nc1ccc(F)cc1 (stereo not drawn),12
CC(=O)Oc1ccc2c(C)cc(=O)oc2c1C(=O)c1ccccc1,15
O=C(O/N=C1\CCS(=O)(=O)c2sccc21)c1ccc(F)cc1,5
NC(=S)n1[nH]c(-c2ccc([N+](=O)[O-])cc2)c(N=Nc2ccc(Cl)cc2)c1=O,2
O=S(=O)(Nc1ccc(O)c(Sc2nc3ccccc3s2)c1)c1ccc(F)cc1,13
CNC(=O)CN(c1cc(OCCOC)c(Cl)cc1Cl)S(=O)(=O)c1ccc(OC)cc1,98
O=C(/C=C/c1ccc(Cl)cc1)NCCc1ccccc1,11
CCOc1ccc(NC(=O)CCC(=O)NNC(=O)COc2ccccc2C)cc1,8
Cn1c(=O)cc(OCC(=O)NCCc2ccc(Cl)cc2)c2ccccc21,10
CCCOC(=O)c1c(NC(=O)CCC(=O)O)sc2c1CCCCC2,16
OC(CNC1CCCCC1)CNC1CCCCC1,9
C=CCC1(N(C(C)=O)c2ccccc2C)CCCCC1,1
CC(=O)Nc1ccc(S(=O)(=O)C(C#N)c2nc3ccccc3nc2NCCCO)cc1 (stereo not drawn),24
Cc1ccc(/C=C/C(=O)O)cc1S(=O)(=O)NCc1ccco1,24
O=C(N/N=C/c1cccnc1)C1CC1(c1ccccc1)c1ccccc1 (stereo not drawn),7

# New compounds follow
Compound,Biofilm kill mix
CCCNC(=O)CSc1nnc(-c2ccc(F)cc2)o1,8
COc1ccc(OCC(=O)Nc2ccc(Cl)cc2)cc1,16
CC(c1nccs1)N(C)C(=O)CCc1nnc(Cc2c[nH]c3ccccc23)o1 (stereo not drawn),41
C/C(=N\NC(=O)c1ccccn1)c1ccc(C(=O)O)s1,23
CCN(CC)C(=O)CSc1nnc(-c2ccccn2)n1Cc1ccccc1,23
COCCNC(=S)NN(c1ccccc1)c1ccccc1,16
c1ccc2c(c1)ncn2CCOCCOCCn1cnc2ccccc21,-3
COc1ccccc1OCc1nnc(SCC(=O)NCc2ccco2)n1-c1ccccc1,8
Cc1ccccc1-n1c(SCC(=O)Nc2ccc3c(c2)OCO3)nnc1-c1ccccn1,14
O=C(CN1C(=O)NC2(CCCCC2)C1=O)NCc1cccs1,21
Cc1ccccc1Nc1c(-c2ccncc2)nc2ccc(Cl)cn12,14
O=C(Nc1nc(-c2ccc(-c3ccccc3)cc2)cs1)c1cc([N+](=O)[O-])ccc1N1CCOCC1,7
COc1ccccc1CNC(=O)CN(CCc1ccccc1)S(C)(=O)=O,15
O=C(CNc1ccccc1C(=O)O)c1ccccc1,21
CCOc1cccc2c1OC1(C)CC2NC(=O)N1Cc1ccccc1 (stereo not drawn),35
C#CCOCCOCCOCCNc1nc(N2CCN(C(=O)[C@H]([C@@H](C)CC)n3cc([C@@H](N)Cc4ccc(O)cc4)nn3)CC2)nc(N2CCN(C(=O)[C@H](CCCCN)n3cc([C@@H](N)C(C)CC)nn3)CC2)n1 (stereo partly drawn),17
CC(C)Oc1ccc(C(CC(=O)NCCCN(C)C)c2ccc(F)cc2)cc1 (stereo not drawn),15
CCOC(=O)CCSCC(=O)N1N=C(c2cccs2)CC1c1ccc(C)cc1 (stereo not drawn),12
CC(=O)c1ccc(N2C(=O)[C@@H]3[C@H](C2=O)[C@H]2c4ccccc4C=NN2[C@@H]3C(C)=O)cc1,9
CC(C)C(c1nnnn1C1CCCCC1)N1CCCc2ccccc21 (stereo not drawn),16
Cc1c(C)n(CCC#N)c2ccc(Cl)cc12,13
CCOC(=O)C1CCN(C(=O)c2sc3ncnc(N4CCC(C)CC4)c3c2C)CC1,15
Cn1cnc2ccc([N+](=O)[O-])cc2c1=O,23
CCOC(=O)N1CCC(NC(=S)Nc2ccc3nc(N4CCN(CC)CC4)cc(C)c3c2)CC1,12
CC(=O)N1CCN(Cc2nc(C(c3ccccc3)c3ccccc3)no2)CC1,-7
S=c1[nH]c2ccccc2o1,7
O=C(NCc1ccccc1)C12CC3CC(CC(Cl)(C3)C1)C2,20
c1ccc(N2CCN(c3nc(-c4cccs4)nc4ccccc34)CC2)cc1,13
CCOC(=O)CSc1cc(C)nc2ccc(OC)cc12,-2
CC1CCCN(c2ccc(C(=O)OCC(=O)N3c4ccccc4Sc4ccccc43)cc2[N+](=O)[O-])C1 (stereo not drawn),11
CN1Cc2cccc3c2C(Cc2ccccc2S3)C1 (stereo not drawn),19
Cc1c(O)ccc(C(=O)CN2CCN(Cc3ccc4c(c3)OCO4)CC2)c1O,11
Cc1cccc(C(=O)Nc2ccc(NC(=O)Cc3ccc(Cl)cc3)cc2)c1,18
COc1ccc(-n2c(SC3CCOC3=O)nc3ccccc3c2=O)cc1Cl (stereo not drawn),13
Cc1nc2ccc(C(=O)NCc3ccc4c(c3)OCO4)cc2s1,6
CC1(C)CC(=O)C=C(NNC(=O)c2ccccc2)C1,16
C=CCC1(CC=C)CCCN1C(=O)CC1C(=O)NCCN1Cc1ccccc1OC (stereo not drawn),14
O=C(NNc1cccc(Cl)n1)c1c(F)cccc1F,13
COc1ccccc1CNC(=O)Cn1c(=O)oc2cc(Cl)ccc21,32
CCOc1ccc(CC(=O)Nc2cc(=O)n(C)c(=O)n2C)cc1,12
Cc1csc(NC(=O)c2ccc3c(=O)n4c(nc3c2)CCCCC4)n1,6
COc1ccc(-c2nnc(SC(=O)N3c4ccccc4Sc4ccccc43)o2)cc1,10
CCc1nnc(NC(=O)c2cccc(S(=O)(=O)N(C)c3ccc(OC)cc3)c2)s1,0

# In the list so far, these contain bromine.
Compound,Biofilm kill mix
O=C(CCc1ccc(O)c(O)c1)NNC(=S)Nc1ccc(Br)cc1Cl,23
Cc1ccc(-c2cc3nc(-c4ccc(Br)cc4)cc(N)n3n2)cc1,13

# Screening results as filed in PubChem.
